HSV augment: enhancers of HSV replication in host cells, fold increase, host cell viability; HSV replication augmentation in cells; maximum fold increase; hit rate 0.005% among 220,000;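 active = peak rise of 1.5-fold or more in the series; inconclusive = self-fluorescent or not available for retest; tested in PC3 cells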;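 also: first round at 10 µM; read as green reporter fluorescence; hits show the peak of a series up to 25 µM; 1 = signal of infected wells without compound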
PKD1 inh: inhibitors of human PKD1 kinase, biochemical, fluorescence polarization. hit rate 0.056% among 200,000. AID 797, 2007. PKD1 kinase fluorescence polarization assay. Serine/threonine-protein kinase D1 (Homo sapiens), Q15139. inhibition, %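 (about 10 µM by stock and volumes)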;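 active = inhibition of 50% or more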;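 also: controls were vehicle for no effect and a reference inhibitor for full effect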
Insulin prom inh: inhibitors of insulin promoter-driven GFP, primary screen, imaging, TRM-6 cells (human fetal islet line), eGFP reporter, cell count; reporter expression induced with tamoxifen; hit rate 0.9% among 130,000; AID 1273, 2008; inhibition, % at 2 µM;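 active = inhibition above the mean plus 3 SD, with well images judged a real hit on visual review, cut at about 60% in these data, passing the limit was not always enough; inconclusive = inhibition over the cutoff but images rejected on review; inactive = inhibition not above the cutoff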
RGS16-Gao: modulators of RGS16 binding to Galphao, primary screen, biochemical, human proteins, multiplexed bead flow cytometry | bead-based flow cytometry RGS16-Galphao binding, fluorescence; actives lie on both sides | binding response (% of control), % at 10 µM | hit rate 0.38% among 220,000;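 active = below 25% or above 175%, edge rows of some plates excepted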;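 also: Galphao activated by GDP with aluminum fluoride before binding; 100% = wells without compound and 0% = beads without RGS; some results beyond the cut were filed as inactive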
Target sequence (O15492 whole entry, looked up): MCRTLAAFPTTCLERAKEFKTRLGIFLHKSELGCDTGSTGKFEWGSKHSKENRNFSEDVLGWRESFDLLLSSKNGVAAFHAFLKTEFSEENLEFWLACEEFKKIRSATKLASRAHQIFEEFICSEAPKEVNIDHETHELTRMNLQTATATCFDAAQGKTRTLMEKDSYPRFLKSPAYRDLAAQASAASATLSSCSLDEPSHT
Target sequence (P09471 whole entry, looked up): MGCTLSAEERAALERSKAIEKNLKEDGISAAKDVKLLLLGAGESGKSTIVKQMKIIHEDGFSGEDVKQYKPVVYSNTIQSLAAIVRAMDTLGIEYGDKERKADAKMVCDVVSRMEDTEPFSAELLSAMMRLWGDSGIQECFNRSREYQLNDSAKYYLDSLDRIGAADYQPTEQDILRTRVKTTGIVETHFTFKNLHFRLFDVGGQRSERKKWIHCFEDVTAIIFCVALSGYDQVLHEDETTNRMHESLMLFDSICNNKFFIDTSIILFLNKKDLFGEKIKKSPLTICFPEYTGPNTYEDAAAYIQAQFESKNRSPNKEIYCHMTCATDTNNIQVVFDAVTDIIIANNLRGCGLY
GALR2 agonist: GALR2 receptor agonists, primary screen, cell-based; Galanin receptor type 2 (Homo sapiens), O43603; GALR2-expressing cells, agonist activation read-out; activation, %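 (tested at 5 µM)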; hit rate 0.48% among 140,000;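 active = above mean plus 3 SD of all compounds, about 5% in these data, not always enough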;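 also: 0% = vehicle buffer wells and 100% = reference agonist at full effect; tested in CHO reporter cells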
Target sequence (O43603 whole entry, looked up): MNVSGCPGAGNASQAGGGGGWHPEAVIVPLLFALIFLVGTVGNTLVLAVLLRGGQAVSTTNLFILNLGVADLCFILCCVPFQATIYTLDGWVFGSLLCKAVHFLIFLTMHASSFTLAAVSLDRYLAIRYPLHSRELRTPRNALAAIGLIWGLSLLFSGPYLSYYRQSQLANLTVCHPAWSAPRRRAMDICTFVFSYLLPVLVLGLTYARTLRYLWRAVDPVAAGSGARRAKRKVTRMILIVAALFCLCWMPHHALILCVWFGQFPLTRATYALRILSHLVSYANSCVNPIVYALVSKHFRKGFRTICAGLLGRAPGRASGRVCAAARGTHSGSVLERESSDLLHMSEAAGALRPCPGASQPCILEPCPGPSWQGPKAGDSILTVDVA
Insulin prom inh cell count: further read-out of Insulin prom inh, marked with its call; normalized cell count, %; measured here: cell count, toxicity; reference of the scale not given here;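 cells exposed to compound for 48 h; stained nuclei by imaging scaled within each plate; lower means fewer cells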
HSV augment primary fold: also measured in HSV augment; calls as there; fold increase; compound at 10 µM; measured here: primary screen fold increase 10 uM; tested in PC3 cells;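 GFP signal in the first replicate; 1 = infected wells without compound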
An asterisk follows results filed as active.

How did O=C(Nc1ccc(F)cc1)N1CCc2ccccc2C1 do in these assays?
HSV augment: inactive; PKD1 inh: 3; Insulin prom inh: -22; RGS16-Gao: 34; Insulin prom inh cell count: 54; HSV augment primary fold: 1

What do the screens show for `CCN(CCCNC(=O)c1[nH]c(C)c(C(C)=O)c1C)c1cccc(C)c1`?
HSV augment: inactive; PKD1 inh: -1; RGS16-Gao: 110; GALR2 agonist: -2.2; HSV augment primary fold: 1

Results for Fc1ccccc1NC(=S)Nc1ccc(Br)cc1 ?
HSV augment: inactive; PKD1 inh: -7; RGS16-Gao: 98; GALR2 agonist: 0.0; HSV augment primary fold: 0.94

Results for CC(=O)Nc1ccc(NC(=O)c2sc3nc4n(c(=O)c3c2C)CCCCC4)cc1 ?
HSV augment: inactive; PKD1 inh: -8; Insulin prom inh: 18; RGS16-Gao: 113; Insulin prom inh cell count: 166; HSV augment primary fold: 0.95

What do the screens show for `CC(C)(C)OC(=O)NCCCC[C@H](NC(=O)c1[nH]cnc1C(=O)Nc1ccccc1)C(=O)OC(C)(C)C`?
HSV augment: inactive; RGS16-Gao: 96; HSV augment primary fold: 0.77

What do the screens show for `CSCC(=O)N1CCCC(CNC(=O)c2ccccc2Cl)C1` (stereo unspecified)?
HSV augment: inactive; PKD1 inh: 1; RGS16-Gao: 64; HSV augment primary fold: 0.94

How did O=C(Nc1nc2ccsc2c(=O)s1)C1CCC1 do in these assays?
HSV augment: inactive; RGS16-Gao: 96; HSV augment primary fold: 0.91

What do the screens show for `O=C(OCc1ccc(Br)cc1)c1cccc(-c2nnc(-c3ccccc3)o2)c1`?
HSV augment: inactive; PKD1 inh: -10; RGS16-Gao: 102; GALR2 agonist: -0.7; HSV augment primary fold: 0.94

What do the screens show for `Cc1cc(C)nc(SCc2cn3c(C)cc(C)nc3n2)n1`?
HSV augment: inactive; RGS16-Gao: 96; HSV augment primary fold: 1.1

Results for COCc1nnc(NC(=O)c2cc(OC)c(OC)cc2[N+](=O)[O-])s1 ?
HSV augment: inactive; PKD1 inh: -4; Insulin prom inh: -14; RGS16-Gao: 99; GALR2 agonist: -0.6; Insulin prom inh cell count: 78; HSV augment primary fold: 1

What do the screens show for `NC(=O)Nc1ccc(C(=O)OCC(=O)Nc2ccc([N+](=O)[O-])cc2C(F)(F)F)cc1`?
HSV augment: inactive; PKD1 inh: -4; Insulin prom inh: -35; RGS16-Gao: 107; GALR2 agonist: -2.5; Insulin prom inh cell count: 66; HSV augment primary fold: 0.97

How did CCCc1nnc(SCC(=O)O)n1CC do in these assays?
HSV augment: inactive; RGS16-Gao: 90; HSV augment primary fold: 1

What do the screens show for `Cc1cccc(NC(=O)C(=O)NCC2CCCO2)c1` (stereo unspecified)?
HSV augment: inactive; PKD1 inh: -5; RGS16-Gao: 100; HSV augment primary fold: 0.89

Results for c1cc(-n2nnc3cnccc32)ccn1 ?
HSV augment: inactive; RGS16-Gao: 104; HSV augment primary fold: 1.1

How did O=C(O)c1cccc(S(=O)(=O)N2CCOCC2)c1 do in these assays?
HSV augment: inactive; PKD1 inh: -3; Insulin prom inh: 3; RGS16-Gao: 99; GALR2 agonist: -3.4; Insulin prom inh cell count: 110; HSV augment primary fold: 1.1

Structural class, the entries above containing an NH in an aromatic ring.
What do the screens show for `CCN(CCCNC(=O)c1[nH]c(C)c(C(C)=O)c1C)c1cccc(C)c1`?
HSV augment: inactive; PKD1 inh: -1; RGS16-Gao: 110; GALR2 agonist: -2.2; HSV augment primary fold: 1

What do the screens show for `CC(C)(C)OC(=O)NCCCC[C@H](NC(=O)c1[nH]cnc1C(=O)Nc1ccccc1)C(=O)OC(C)(C)C`?
HSV augment: inactive; RGS16-Gao: 96; HSV augment primary fold: 0.77

In the list so far, 2 have an aryl thioether with sulfur outside any ring:
What do the screens show for `Cc1cc(C)nc(SCc2cn3c(C)cc(C)nc3n2)n1`?
HSV augment: inactive; RGS16-Gao: 96; HSV augment primary fold: 1.1

How did CCCc1nnc(SCC(=O)O)n1CC do in these assays?
HSV augment: inactive; RGS16-Gao: 90; HSV augment primary fold: 1

Continued:
How did O=C(CSc1ccc(Cl)cc1)Nc1cccc(NC(=O)c2ccco2)c1 do in these assays?
HSV augment: inactive; PKD1 inh: -16; RGS16-Gao: 91; GALR2 agonist: -3.0; HSV augment primary fold: 0.91

What do the screens show for `C=CCNCc1cccn1-c1sc2c(c1C#N)CCCC2`?
HSV augment: inactive; PKD1 inh: 0; Insulin prom inh: -36; RGS16-Gao: 103; GALR2 agonist: -1.0; Insulin prom inh cell count: 65; HSV augment primary fold: 0.55

How did Cc1ccc(C(=O)c2ccccc2C(=O)OCC(=O)NCCc2ccc(Cl)cc2Cl)cc1 do in these assays?
HSV augment: inactive; PKD1 inh: -16; Insulin prom inh: -47; RGS16-Gao: 110; GALR2 agonist: -0.8; Insulin prom inh cell count: 140; HSV augment primary fold: 0.97

What do the screens show for `CCCCN1C(=O)/C(=C/C=C2\SCCN2C)SC1=S`?
HSV augment: inconclusive; PKD1 inh: -11; Insulin prom inh: -408; RGS16-Gao: 100; Insulin prom inh cell count: 115

How did CN(Cc1ccccc1)c1c([N+](=O)[O-])c(=O)n(C)c2ccccc12 do in these assays?
HSV augment: inactive; RGS16-Gao: 97; HSV augment primary fold: 1.3

What do the screens show for `COCCCn1c(C)csc1=Nc1cccnc1`?
HSV augment: inactive; PKD1 inh: -2; RGS16-Gao: 94; GALR2 agonist: -0.8; HSV augment primary fold: 0.9

Results for CCOC(=O)c1cnc2nc[nH]n2c1=O ?
PKD1 inh: -6; Insulin prom inh: -5; RGS16-Gao: 85; GALR2 agonist: 0.1; Insulin prom inh cell count: 71

How did CC(C)c1ccc(NC(=S)NCc2cccs2)cc1 do in these assays?
HSV augment: inactive; PKD1 inh: -4; Insulin prom inh: -13; RGS16-Gao: 101; GALR2 agonist: -5.1; Insulin prom inh cell count: 64; HSV augment primary fold: 0.96

Results for O=C(Nn1cnnc1)c1ccc([N+](=O)[O-])cc1 ?
HSV augment: inactive; PKD1 inh: -8; RGS16-Gao: 87; HSV augment primary fold: 1

Results for CCOc1ccccc1NC(=S)NCCCn1ccnc1 ?
HSV augment: inactive; PKD1 inh: -3; RGS16-Gao: 103; HSV augment primary fold: 0.96

How did Nc1nc(Nc2ccccc2F)nc(N2CCOCC2)c1[N+](=O)[O-] do in these assays?
HSV augment: inactive; RGS16-Gao: 101; HSV augment primary fold: 0.89

What do the screens show for `Cc1cc(N2C(=O)C(=O)/C(=C(/O)c3ccccc3)C2c2cccs2)no1` (stereo unspecified)?
HSV augment: inactive; PKD1 inh: -17; RGS16-Gao: 97; GALR2 agonist: 0.3; HSV augment primary fold: 1

Results for Cc1ccc2c(c1)-c1c(cnn1CC(=O)N1CCCN(Cc3ccccc3F)C1)CO2 ?
HSV augment: inactive; PKD1 inh: 1; RGS16-Gao: 104; GALR2 agonist: -2.5; HSV augment primary fold: 0.71

What do the screens show for `O=C(CN1CCN(C(c2ccccc2)c2ccccc2)CC1)NCc1ccccc1`?
HSV augment: inactive; PKD1 inh: 1; Insulin prom inh: -28; RGS16-Gao: 103; Insulin prom inh cell count: 33; HSV augment primary fold: 0.96

What do the screens show for `O=C(CSc1nnc(-c2ccco2)o1)N1CCOCC1`?
HSV augment: inactive; PKD1 inh: -9; RGS16-Gao: 102; GALR2 agonist: 0.0; HSV augment primary fold: 0.99

Results for O=C1CCCc2c1[nH]c1ccc(Cl)cc21 ?
PKD1 inh: -4; Insulin prom inh: 40; RGS16-Gao: 107; GALR2 agonist: -3.5; Insulin prom inh cell count: 165

How did O=C(c1cccnc1)N1CCc2ccccc21 do in these assays?
HSV augment: inactive; PKD1 inh: -4; Insulin prom inh: 32; RGS16-Gao: 104; GALR2 agonist: -3.7; Insulin prom inh cell count: 66; HSV augment primary fold: 1.1

What do the screens show for `COC(=O)c1sc(N2C(=O)C(=O)/C(=C(/O)c3ccccc3)C2c2ccco2)nc1C` (stereo unspecified)?
HSV augment: inactive; PKD1 inh: -5; Insulin prom inh: 50; RGS16-Gao: 108; GALR2 agonist: -0.9; Insulin prom inh cell count: 118; HSV augment primary fold: 1

What do the screens show for `Cc1ccc(CCNC(=O)CNC(=O)c2cccs2)cc1`?
HSV augment: inactive; PKD1 inh: 3; RGS16-Gao: 102; HSV augment primary fold: 0.95

Results for C#CCOCCOCCOCCNc1nc(N2CCOCC2)nc(N2CCN(C(=O)Cn3cc(CC(C)O)nn3)CC2)n1 (stereo unspecified) ?
HSV augment: inactive; PKD1 inh: -6; Insulin prom inh: -45; RGS16-Gao: 104; GALR2 agonist: -2.0; Insulin prom inh cell count: 82; HSV augment primary fold: 0.98

How did Cc1ccc(NC(=O)CN(C)CC(=O)Nc2cccc(F)c2)cc1S(=O)(=O)N1CCCCCC1 do in these assays?
HSV augment: inactive; PKD1 inh: 3; Insulin prom inh: -11; RGS16-Gao: 117; Insulin prom inh cell count: 67; HSV augment primary fold: 1

Results for C=CCn1c(SCC(=O)NC2CCCCC2)nnc1C(C)NC(=O)c1cccs1 (stereo unspecified) ?
HSV augment: inactive; PKD1 inh: -5; Insulin prom inh: -55; RGS16-Gao: 70; GALR2 agonist: 0.5; Insulin prom inh cell count: 78; HSV augment primary fold: 1.1

How did COc1ccc(CCNC(=S)Nc2cc(C)ccc2C)cc1 do in these assays?
HSV augment: inactive; PKD1 inh: -4; Insulin prom inh: -12; RGS16-Gao: 102; GALR2 agonist: -2.4; Insulin prom inh cell count: 108; HSV augment primary fold: 0.93

Results for Oc1ccc(N2CCN(C(c3cccs3)c3nnnn3CCc3ccccc3)CC2)cc1 (stereo unspecified) ?
HSV augment: inactive; PKD1 inh: -3; Insulin prom inh: 45; RGS16-Gao: 103; GALR2 agonist: -1.0; Insulin prom inh cell count: 99; HSV augment primary fold: 0.75

How did CCC(C(=O)OCC(=O)c1ccc2c(c1)NC(=O)CO2)c1ccccc1 (stereo unspecified) do in these assays?
HSV augment: inactive; PKD1 inh: -1; RGS16-Gao: 102; HSV augment primary fold: 0.94

How did CCOc1ccc(N2C(=O)CC(NC3CCCCNC3=O)C2=O)cc1 (stereo unspecified) do in these assays?
HSV augment: inactive; PKD1 inh: -6; Insulin prom inh: 47; RGS16-Gao: 108; GALR2 agonist: -1.0; Insulin prom inh cell count: 122; HSV augment primary fold: 0.97

Results for COC(=O)c1ccc(/C=N/Nc2nc(-c3ccc(Cl)cc3Cl)cs2)cc1 ?
HSV augment: inactive; PKD1 inh: -2; RGS16-Gao: 100; HSV augment primary fold: 1.1

How did O=C1C=C(c2ccccc2)CC(c2cccs2)C1n1cnc([N+](=O)[O-])c1 (stereo unspecified) do in these assays?
HSV augment: inactive; PKD1 inh: -8; Insulin prom inh: -76; RGS16-Gao: 96; GALR2 agonist: -1.8; Insulin prom inh cell count: 109; HSV augment primary fold: 0.9

How did OCCC1CN(Cc2nc(-c3ccccc3)cs2)CCN1CCc1ccccc1 (stereo unspecified) do in these assays?
HSV augment: inactive; PKD1 inh: 0; RGS16-Gao: 92; HSV augment primary fold: 0.92

What do the screens show for `Cn1nnnc1SCC(=O)Nc1nc2ccccc2s1`?
HSV augment: inactive; PKD1 inh: -2; RGS16-Gao: 111; HSV augment primary fold: 0.99

What do the screens show for `COC(=O)c1ccc(CNC(=O)COC(=O)C2CC3C=CC2C3)cc1` (stereo unspecified)?
HSV augment: inactive; PKD1 inh: 4; RGS16-Gao: 100; HSV augment primary fold: 0.77

What do the screens show for `COc1cc2[nH]c(=S)nc(NC3CCCC3)c2cc1OC`?
HSV augment: inactive; PKD1 inh: -4; Insulin prom inh: -33; RGS16-Gao: 104; Insulin prom inh cell count: 117; HSV augment primary fold: 0.99

How did CNc1ccccc1C(=O)OCC(=O)c1ccc(F)cc1 do in these assays?
HSV augment: inactive; PKD1 inh: 2; Insulin prom inh: 9; RGS16-Gao: 102; Insulin prom inh cell count: 114; HSV augment primary fold: 1.1

Results for COc1ccc(-c2csc(N=C(N)N)n2)cc1 ?
HSV augment: inactive; PKD1 inh: -2; Insulin prom inh: 44; RGS16-Gao: 102; Insulin prom inh cell count: 108; HSV augment primary fold: 1

Results for CC(C)c1ccc(/C=C/C(=O)NNC(=O)c2cccnc2)cc1 ?
HSV augment: inactive; PKD1 inh: -14; Insulin prom inh: 25; RGS16-Gao: 91; GALR2 agonist: -0.9; Insulin prom inh cell count: 144; HSV augment primary fold: 0.86
